High-throughput results as filed in PubChem BioAssay.
Rango-impB inh: inhibitors of Rango-importin beta complex formation; Rango CFP/YFP FRET sensor + importin beta, 45 min; Potency, µM (series often up to 92.2 µM), for inactives: at the highest dose inhibition of complex formation; 340,000 compounds, 0.031% hits; AID 540263; active = rising FRET ratio curve, often small or poorly fitted; inconclusive = mostly compound fluorescence or quenching in the first reads; inactive = flat curves in all reads;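 further: potency means the concentration at half of the fitted maximal effect; 0% = DMSO wells and 100% = buffer wells lacking importin beta; nearly all actives have a fitted effect of over 15% in size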
Target sequence (Q14974 whole entry, looked up): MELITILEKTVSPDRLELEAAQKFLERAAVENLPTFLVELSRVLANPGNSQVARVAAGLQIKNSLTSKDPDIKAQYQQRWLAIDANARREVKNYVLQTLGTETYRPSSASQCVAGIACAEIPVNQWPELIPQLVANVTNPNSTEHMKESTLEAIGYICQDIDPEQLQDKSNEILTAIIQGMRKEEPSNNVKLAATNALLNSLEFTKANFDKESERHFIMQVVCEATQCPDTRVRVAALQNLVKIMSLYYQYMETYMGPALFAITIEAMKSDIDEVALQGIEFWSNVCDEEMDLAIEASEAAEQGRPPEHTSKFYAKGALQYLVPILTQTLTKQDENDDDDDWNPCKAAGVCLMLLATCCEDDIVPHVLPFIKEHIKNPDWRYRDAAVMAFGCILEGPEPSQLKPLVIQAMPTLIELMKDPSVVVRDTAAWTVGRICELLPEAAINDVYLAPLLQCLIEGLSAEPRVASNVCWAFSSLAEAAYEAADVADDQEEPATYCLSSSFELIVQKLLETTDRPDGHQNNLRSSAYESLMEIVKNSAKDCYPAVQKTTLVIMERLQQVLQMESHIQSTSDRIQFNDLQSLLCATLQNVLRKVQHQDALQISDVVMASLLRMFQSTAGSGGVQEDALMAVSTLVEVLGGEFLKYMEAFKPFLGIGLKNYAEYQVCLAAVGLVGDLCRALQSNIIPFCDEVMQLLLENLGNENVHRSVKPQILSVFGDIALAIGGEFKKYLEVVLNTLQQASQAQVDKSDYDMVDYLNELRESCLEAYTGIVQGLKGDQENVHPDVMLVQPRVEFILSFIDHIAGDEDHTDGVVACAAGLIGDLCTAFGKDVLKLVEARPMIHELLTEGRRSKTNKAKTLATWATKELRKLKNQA
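Inhibition scored from the CFP 486 nm/YFP 530 nm FRET ratio 45 min after adding 0.125 microM importin beta to 50 nM Rango biosensor preincubated 5 min with compound (room temperature, PBS with DTT, Tween-20, BSA). No-importin wells as positive control.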
GLA inh pH 4.5: blocks human alpha-galactosidase A at pH 4.5 | P06280 | AID 1467 | purified enzyme, 4-MU-alpha-Gal fluorescence, pH 4.5 | activity change, negative = inhibition, % at 105 µM | 230,000 tested, under 10 active; inconclusive = small, poorly fitted or top-dose-only inhibition, or a rising curve; inactive = flat fitted curve, though single readings scatter; no compound was filed as active;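 further: 0% = full activity with enzyme and -100% = basal without enzyme; dose as in the result columns while the protocol names 77 µM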
miR-21 FLuc: raises the signal of a miR-21 reporter | HeLa miR-21 FLuc reporter, luciferase, 48 h | Potency, µM (highest dose often 38.3 µM), for the others: at the highest dose reporter change, positive = more light | 340,000 tested, under 10 active; active = well fitted rising curve with a large enough effect; inconclusive = small, poorly fitted or top-dose-only effect; inactive = no such curve, though single readings can be large or run the other way;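 further: % of control where 0% means no effect; miR-21 action dims this reporter so a rising signal means less miR-21 action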
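HeLa cells endogenously expressing miR-21, stably carrying CMV-driven firefly luciferase with a downstream miR-21 binding site, 2000 cells/well. Titrations up to approximately 40 uM, 48 hours; luciferase luminescence read.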
Rango dissoc inh: inhibitors of RanGTP-induced Rango-importin beta complex dissociation; O95149+P62826; Biochemical FRET Rango-importin beta, RanGTP-induced dissociation; Potency, µM (doses to about 46.1 µM), without a hit: at the top dose activity change, negative = inhibition; 340,000 compounds, 0.071% hits; active means falling FRET ratio curve, often poorly fitted, with flat reads before Ran was added; inconclusive means other falling curves, or compound fluorescence or quenching; inactive means flat or rising ratio curve;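 further: potency means the concentration at half of the fitted maximal effect; % of control where 0% means no effect; nearly all actives have a fitted effect of over 45% in size; -100% = wells without RanGTP and RCC1; the record marks most hits as doubtful in a second field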
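Quantitative HTS using a FRET biosensor: 0.1 uM Rango, 0.25 uM importin beta, 0.6 uM Ran, 2 mM GTP, 0.2 uM RCC1 final, PBS with DTT, Tween-20 and BSA. Post-read taken 45 min after Ran addition.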
Numbers without * were called inactive; u = inconclusive; x = no result given; & = joins results of further samples; [ ] = remark or other dose. This is a subset; the hit share may differ from the screen's.

SMILES	Rango-impB inh	GLA inh pH 4.5	miR-21 FLuc	Rango dissoc inh
Cc1ccsc1C(=O)C1CCCN(Cc2cccc(-n3cccn3)c2)C1 (configuration not stated)	-1.9%	-14	7%	11%
O=C1c2ccccc2-c2cccc3cccc1c23	u	-5	x	u
Cc1ccc2c(c1)C1CN(C)CCC1N2S(=O)(=O)c1ccccc1 (configuration not stated)	-0.2%	-5	-5%	-6%
CC[C@]12C=CCN3CCC4(c5cc(Br)c(OC)cc5N(C)C4[C@@](O)(C(=O)OC)[C@@H]1OC(C)=O)C32 (some centres not stated)	-0.9%	x	5%	2%
CCS(=O)(=O)Nc1cccc(C(=C2CCCCC2)c2cnc[nH]2)c1	0.0%	0	x	-2%
O=C(COC(=O)c1ccccc1)Nc1ccc(Cl)cc1C(=O)c1ccccc1	0.3%	-3	-7%	0%
N[C@@H]1C[C@H]1c1ccccc1	0.0%	x	x	-8%
O=C(Cn1cnc2sc3c(c2c1=O)CCCC3)NCCCC(=O)N1CCC2(CC1)OCCO2	0.3%	6	-3%	2%
CCOC(=O)C1CN(C)CCC1=O (configuration not stated)	u	0	-3%	-20%
Cc1cc(OC(C)C(=O)N[C@H](C(=O)O)c2ccccc2)c2c3c(c(=O)oc2c1)CCC3 (some centres not stated)	4.0%	x	1%	25%
COC(=O)C1=C(c2ccc(F)cc2OCc2ccccc2)C[C@@H]2CC[C@H]1N2C(=O)NCCc1ccc(F)cc1	0.2%	x	x	3%
Fc1ccccc1CNCCc1c[nH]c2ccccc12	-2.6%	x	-19%	1%
CCOc1ccc(N2C(=O)/C(=C/c3ccco3)C(=O)NC2=S)cc1	u	x	-1%	-16%
CC(C)C/C(=N/O)c1cn(C)c2ccccc12	6.7%	-2[21.1 µM]	-10%	26%
CC(Cc1ccccc1)NC(=O)/C=C/C(=O)O (configuration not stated)	-2.8%	8	1%	-3%
O=C1NC2C(=CC(O)C(O)C2O)c2cc3c(cc21)OCO3 (configuration not stated)	3.2%	x	x	0%
CCCC[N+]12CCC(CC1)C(C(O)(c1ccccc1)c1ccccc1)C2 (configuration not stated)	1.9%	-1	3%	-13%
O=C1CN(O)C(c2ccccc2)=c2cc(Cl)ccc2=N1	-0.4%	x	-2%	-14%
C=CCn1c(O)c(C(C)=Nc2ccc(C(=O)O)cc2)c(=O)[nH]c1=O	-2.7%	2	-7%	0%
O=C(O)Cn1cc(/C=C2\C(=O)NC(=O)N(c3ccc(Cl)cc3)C2=O)c2ccccc21	u	x	13%	-10%
c1cncc(CNC2=NCCCCC2)c1	-4.8%	2	-4%	-3%
O=C(CCCN1CCC(n2c(=O)[nH]c3ccccc32)CC1)c1ccc(F)cc1	5.0%	6	x	-12%
C=CCN1C(=O)NC(=O)/C(=C/C=C/c2ccccc2)C1=O	u	10	0%	u
Cc1ccc(-n2c(C)nc3ccccc3c2=O)cc1C	0.6%	7	-7%	-9%
CC(=O)Oc1ccccc1C(=O)Nc1ncc([N+](=O)[O-])s1	x	-3	-49%	x
Cc1cc(OC(=O)CCNC(=O)OC(C)(C)C)c2c3c(c(=O)oc2c1)CCC3	-1.3%	-28	-3%	-19%
CCC(=NCCc1c[nH]c2ccccc12)c1c(O)n(-c2ccc(C)cc2)c(=O)[nH]c1=O	3.2%	-8	14%	14%
COc1ccc(-c2cc(C(F)(F)F)n3nc(C(=O)N4CCC5(CC4)OCCO5)cc3n2)cc1OC	-1.2%	4	-9%	u
NCCc1ccc(O)cc1	-2.4%	-7&1&1	-10%	2%
Cn1c(C(=O)N2CCC(C(=O)N3CCC4(CC3)OCCO4)CC2)cc2sccc21	-0.4%	-7	-2%	-4%
c1ccc2c(c1)OCC(C1=NCCN1)O2 (configuration not stated)	0.1%	-4&-5	-4%	12%
c1ccc(-n2ccnc2)cc1	2.0%	x	3%	-4%
CCc1ccc(CNCCc2ccccc2F)cc1	1.4%	15	-17%	7%
CC(=NCc1ccc2c(c1)OCO2)c1c(O)[nH]c(=O)[nH]c1=O	-0.3%	0	8%	-9%
CN1C(=O)C(Cc2ccsc2)C(=O)N(C)C1=O	-2.5%	-3	-5%	-10%
COc1ccc(C(=O)CC2(CC(=O)c3ccc(OC)cc3)C(=O)N(C)C(=O)N(C)C2=O)cc1	5.3%	0	-4%	-3%
COP(=O)(NS(=O)(=O)c1ccccc1)OC	-0.6%	2	0%	2%
O=C1NC(=O)N(Cc2ccc(F)cc2)C(=O)/C1=C\C=C\c1ccco1	u	0	9%	u
CCCCn1c(N)c(C(=O)NCCN2CCOCC2)c2nc3ccccc3nc21	u	13	3%	u
CC1([N+](=O)[O-])COP(=O)(NC2CC2)OC1 (configuration not stated)	-0.1%	x	x	18%
Cc1oc(-c2ccccc2Cl)nc1CN1C(=O)CN=C(c2ccccc2)c2ccccc21	-3.1%	-12	8%	1%
CCCCOC(=O)c1ccccc1C(=O)OCCCC	0.0%	-7	x	1%
Cc1ccc(CN2CC3CC(C2)c2cccc(=O)n2C3)cc1 (configuration not stated)	-0.6%	-1	10%	1%
CCCCc1ccc(C(=O)O)nc1	3.4%	-18&0&8	x	-17%
Cc1sc2ccccc2c1CC1=NCCN1	-0.5%	2	x	9%
CC1CC(OC(=O)c2ccccc2)CC(C)N1C (configuration not stated)	-0.8%	-7	5%	-7%
CN1OCC2Cn3c(nc4ccccc43)C21 (configuration not stated)	1.3%	-7	4%	13%
O=c1c2ccccc2nc(-c2cccs2)n1-c1cnccn1	-5.0%	2	4%	-8%
Clc1cnc(Oc2ccc(Oc3ncc(Cl)cc3Cl)cc2)c(Cl)c1	-0.5%	7&8	-4%	-7%
O=C(COc1ccc2ccccc2c1)N1CCN(C2CCN(Cc3ccccc3)CC2)CC1	-3.8%	-8	-8%	31%

Pulled by compound from the list above:
SMILES	Rango-impB inh	GLA inh pH 4.5	miR-21 FLuc	Rango dissoc inh
O=C1NC(=O)N(Cc2ccc(F)cc2)C(=O)/C1=C\C=C\c1ccco1	u	0	9%	u
CC[C@]12C=CCN3CCC4(c5cc(Br)c(OC)cc5N(C)C4[C@@](O)(C(=O)OC)[C@@H]1OC(C)=O)C32 (some centres not stated)	-0.9%	x	5%	2%
CCc1ccc(CNCCc2ccccc2F)cc1	1.4%	15	-17%	7%

(further entries)
SMILES	Rango-impB inh	GLA inh pH 4.5	miR-21 FLuc	Rango dissoc inh
Cc1[nH]n(-c2ccccc2)c(=O)c1C(c1ccc([N+](=O)[O-])cc1)c1c(C)[nH]n(-c2ccccc2)c1=O	-3.2%	-2	1%	-2%
CCc1ccccc1N1C(=O)/C(=C/c2ccc(N3CCN(C)CC3)o2)C(=O)NC1=S	u	-7	-13%	-25%
CCC(C(=O)N1CCC2(CC1)OCCO2)n1c2ccccc2c2nc(=O)cc(C)n21 (configuration not stated)	-0.4%	x	2%	-12%
N#Cc1c(Br)n(C2OC(CO)C(O)C2O)c2ncnc(N)c12 (configuration not stated)	-0.4%	x	x	1%
CCOC(=O)c1cccc(NC(=O)c2c(O)[nH]c(=O)[nH]c2=O)c1	-2.0%	x	x	-16%
C=C1C(=O)OC2CC3(C)OC3CCC(C)=CC(OC(C)=O)C12 (configuration not stated)	-0.2%	x	x	-3%
CC(=O)N1CCN(c2ccc(N=Cc3c(O)n(Cc4ccccc4)c(=O)[nH]c3=O)cc2)CC1	u	-5	-9%	u
CN1CC=C(/C=C/c2ccc(-c3ccccc3)cc2)CC1	-0.4%	x	-4%	-6%
Cc1sc2ncn(CC(=O)NCCCC(=O)N3CCC4(CC3)OCCO4)c(=O)c2c1C	-3.3%	-15	-2%	2%
COC(=O)C1=C(c2ccc(OC(F)(F)F)cc2)C[C@@H]2CC[C@H]1N2C(=O)NCCOc1ccccc1Cl	-2.0%	x	x	-7%
Cc1ccc(N=C(N(C)C)P(=O)(N(C)C)N(C)C)cc1	1.9%	4	1%	-2%
O=P(Oc1ccc(-c2ccccc2)cc1)(N1CC1)N1CC1	-0.7%	x	x	-13%
CC1=CC2OC3CC4OC(=O)C=CC=CC(C(C)O)OCC(O)C(C)CC(=O)OCC2(CC1O)C4(C)C31CO1 (configuration not stated)	0.2%	x	x	21%
O=C(O)c1ccccc1-c1ccc(C=C2C(=O)N(c3ccccc3)C(=S)N(c3ccccc3)C2=O)o1	u	x	-6%	-25%
O=C1NC(=O)C(CCc2ccncc2)(Cc2ccc3c(c2)OCO3)C(=O)N1CCc1ccccc1 (configuration not stated)	0.4%	-2	20%	-9%
Fc1ccc(CN2CCN(c3ccc(Cl)cc3)CC2)cc1	0.2%	0	-4%	3%
O=C1NC(=O)N(CCNc2ncc(C(F)(F)F)cc2Cl)C(=O)C1/C=N/OCc1c(F)cccc1Cl (configuration not stated)	-0.4%	8	-7%	2%
COc1cc(N)c(Cl)cc1C(=O)NC1CN2CCC1CC2 (configuration not stated)	x	-1	-2%	x
CC1(C)CC[C@]2(C)CC[C@]3(C)C4C[C@@H]5OO[C@@]6(O5)C(CCCC6(C)C)[C@]4(C)CC[C@@]3(C)C2C1 (some centres not stated)	-0.7%	x	x	-12%
CN1Cc2cnnn2-c2ccccc2C1C#N (configuration not stated)	-3.7%	x	x	3%

In the list so far, two contain a cyano group.
SMILES	Rango-impB inh	GLA inh pH 4.5	miR-21 FLuc	Rango dissoc inh
N#Cc1c(Br)n(C2OC(CO)C(O)C2O)c2ncnc(N)c12 (configuration not stated)	-0.4%	x	x	1%
CN1Cc2cnnn2-c2ccccc2C1C#N (configuration not stated)	-3.7%	x	x	3%

The list continues:
SMILES	Rango-impB inh	GLA inh pH 4.5	miR-21 FLuc	Rango dissoc inh
C[C@]12C[C@@H](O)[C@H](O)CC1=CCC1C2CC[C@]2(C)C(=O)CCC12 (some centres not stated)	-1.3%	x	x	0%
N=c1c[n+](C2CCCCC2)[n-]o1	-2.3%	-17	-3%	-2%
O=C(N=Nc1c(O)[nH]c(=O)[nH]c1=O)C1COc2cc3ccccc3cc2O1 (configuration not stated)	4.2%	4	-16%	-1%
CCC(=O)N1CC(=O)Nc2ccc(Br)cc2C1c1ccccc1 (configuration not stated)	-0.6%	-13	-6%	0%
Cc1noc(NS(=O)(=O)c2ccc(NC(=O)CCCOc3ccc(Cl)cc3Cl)cc2)c1C	2.8%	-2	-5%	u
O=c1[nH]c(=S)n(Cc2ccc(F)cc2)c(O)c1/C=N/N1CCCCC1	u	-9	2%	-16%
COc1nc2ccccc2c(=O)n1-c1ccc(Cl)cc1	0.0%	-6	-16%	-9%
Cc1ccc(NC(=O)c2cn(CCC#N)nc2-c2ccc3c(c2)OCCO3)c([N+](=O)[O-])c1	2.3%	-3	-12%	29%
CN1C(=O)C(=Cc2cn(CC(=O)N3CCCCC3)c3ccccc23)C(=O)N(C)C1=O	-3.6%	x	1%	-8%
CCCCCCCn1c(=O)c(C(=O)Nc2cnccn2)c(O)c2ccccc21	-3.8%	1	-4%	8%
CCCc1[nH]nc2c1C1(C(=O)N(Cc3ccccc3)c3ccccc31)C(C(=O)OC)=C(N)O2 (configuration not stated)	0.1%	-12	20%	23%
C#CC1(OC(=O)c2ccccc2)CC(C)N(C)CC1C (configuration not stated)	-0.8%	x	-1%	u
Cc1ccc(NN=C2C(=O)OC(C)(C)OC2=O)c(C)c1	-1.2%	-5	-72%	1%
CN(C)S(=O)(=O)c1cc(NC(=O)COC(=O)Cc2ccccc2)ccc1Cl	-2.2%	5	0%	-4%
COc1ccc(OCC(=O)Nc2ccc(Cl)cc2C(=O)c2ccccc2)cc1	-0.7%	4	-1%	9%
CC(C)N1CCN(c2ccc(O)cc2)CC1	3.3%	0	-12%	-1%
COc1ccc(NC(=O)CCCn2c(=O)oc3ccccc32)cc1Cl	-0.1%	-1	-70%	0%
COC(=O)C1=C(c2ccc(OCc3ccccc3)cc2)C[C@@H]2CC[C@H]1N2C(=O)NCc1cccc(OC)c1	0.5%	x	x	-1%
CC(=O)NC(C)Cc1ccccc1 (configuration not stated)	-0.8%	-27	-1%	0%
C=CC(C)C(C(=O)c1ccccc1)N(C)C (configuration not stated)	3.1%	-3	-1%	30%
O=C(CF)NC(Nc1cccc2cccnc12)C(Cl)(Cl)Cl (configuration not stated)	-2.1%	-22	2%	6%
